Compound activity (PubChem)
D2 ag – human D2 receptor agonism in beta-arrestin assay; 0.084% of 360,000 active; P14416; activation, % (concentration not given with the values); DiscoveRx PathHunter D2 beta-arrestin, luminescence, 90 min; 100% = 57 uM dopamine signal; in the data active = activation above about 40%; inconclusive = about 15% to 40%; inactive = below about 15%; note: compound concentration not given in the record; the text of the record calls up to 30% inactive
Target sequence (P14416 whole entry, looked up): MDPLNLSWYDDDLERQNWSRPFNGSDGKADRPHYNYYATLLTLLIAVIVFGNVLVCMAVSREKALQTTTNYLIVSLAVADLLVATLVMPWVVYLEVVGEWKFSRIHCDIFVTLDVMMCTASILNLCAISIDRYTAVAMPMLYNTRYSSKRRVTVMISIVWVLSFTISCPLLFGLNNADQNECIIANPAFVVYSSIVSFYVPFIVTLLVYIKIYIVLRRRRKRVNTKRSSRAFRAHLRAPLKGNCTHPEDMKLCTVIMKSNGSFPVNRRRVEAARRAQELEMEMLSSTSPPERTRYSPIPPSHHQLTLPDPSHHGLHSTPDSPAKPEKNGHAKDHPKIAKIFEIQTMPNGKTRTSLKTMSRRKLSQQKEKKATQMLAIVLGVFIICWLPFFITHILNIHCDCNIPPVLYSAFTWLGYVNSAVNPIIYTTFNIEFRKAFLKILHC
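DiscoveRx PathHunter D2 beta-arrestin cells (2,100/well) attached overnight, then compound-stimulated 90 min at 37 C in HBSS/10 mM HEPES/0.1% Tween-20 buffer; beta-galactosidase complementation read by luminescence after 1 h at ambient temperature. Dopamine 57 uM final (EC100) as control.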
Six1-Eya2 inh – blocks human Six1 binding to Eya2; 0.56% of 360,000 active; AlphaScreen GST-Six1/His-Eya2 binding, biochemical; stronger effect = lower value; control for the full effect not named in the record; AID 651725; activity change, % (concentration not given with the values); in the data active = activity change below about -65%; inconclusive = about -30% to -65%; inactive = above about -30%; note: % is set by controls: 0 for no effect and ±100 for the full control effect
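Homogeneous AlphaScreen proximity assay pairing GST-Six1 with His-tagged Eya2 (added as 5X mix: 250 nM and 500 nM) in 50 mM Tris pH 8.0, 300 mM NaCl, 1 mM TCEP. Glutathione donor and nickel acceptor beads; 1 h, 37 °C, dark.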
TRPML1 blocker – blocks the human TRPML1 channel. activity change, negative = inhibition, % (no concentration beside the values). 0.02% of 390,000 active. AID 624415. TRPML1-inducible cells, Ca2+ dye fluorescence, FDSS; stronger effect = lower value; inhibition of EC80 agonist-evoked calcium signal. Q9GZU1; in the data active means activity change below about -50%; inconclusive means about -30% to -50%; inactive means above about -30%;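 note: stimulus is agonist 54-4 at its EC80 concentration; % is set by controls: 0 for no effect and ±100 for the full control effect; compound concentration not given in the record; the text of the record puts the active cut at -80%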
Target sequence (Q9GZU1 whole entry, looked up): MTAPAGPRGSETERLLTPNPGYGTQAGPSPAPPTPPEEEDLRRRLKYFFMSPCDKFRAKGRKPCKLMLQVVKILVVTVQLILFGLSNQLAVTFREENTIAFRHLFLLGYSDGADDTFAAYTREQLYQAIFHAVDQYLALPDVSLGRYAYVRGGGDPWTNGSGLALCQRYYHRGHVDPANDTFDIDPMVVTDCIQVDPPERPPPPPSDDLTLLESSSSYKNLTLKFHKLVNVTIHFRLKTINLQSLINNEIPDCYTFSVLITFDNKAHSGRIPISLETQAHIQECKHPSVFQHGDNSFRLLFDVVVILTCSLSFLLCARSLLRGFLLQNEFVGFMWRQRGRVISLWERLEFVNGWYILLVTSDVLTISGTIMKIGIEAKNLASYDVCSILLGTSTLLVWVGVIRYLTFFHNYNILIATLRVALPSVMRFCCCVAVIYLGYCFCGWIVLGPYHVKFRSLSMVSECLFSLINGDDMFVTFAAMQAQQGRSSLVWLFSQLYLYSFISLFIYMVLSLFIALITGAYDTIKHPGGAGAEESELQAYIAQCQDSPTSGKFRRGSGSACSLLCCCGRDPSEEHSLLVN
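Tet-induced TRPML1-DL cells loaded with Ca8 no-wash calcium dye were read kinetically on FDSS. Compound addition was followed by EC80 agonist 54-4 (4 uM final); inhibition was read over 110 s.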
CtBP-E1A blk – inhibitors of CtBP/E1A interaction; AlphaScreen GST-E1A/His-CtBP binding, 1536-well; stronger effect = lower value; control for the full effect not named in the record; activity change, % (test concentration not listed); 0.49% of 340,000 active; in the data active means activity change below about -65%; inconclusive means about -30% to -65%; inactive means above about -30%; note: % is set by controls: 0 for no effect and ±100 for the full control effect; compound concentration not given in the record
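GST-E1A and His-tagged CtBP (125 nM each as 5X stock) were preincubated with pin-transferred compound for 2 h at 37 °C in the dark, then glutathione donor and nickel acceptor beads were added for 1 h before AlphaScreen reading.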
TRPML1 ag – human mucolipin-1 channel agonism | TRPML1-expressing cells, Ca2+ dye fluorescence, FDSS; host cell line not named in the record; reference of the full effect not given here | activation, % (concentration not given with the values) | 0.12% of 410,000 active; in the data active = activation above about 50%; inconclusive = about 30% to 50%; inactive = below about 30%; note: 0% is about no effect; the text of the record puts the active cut at 80%
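TRPML1-DL cells, Tet-induced overnight (~16 h, 37 degrees C), loaded 45-90 min at room temperature with Ca8 no-wash calcium dye plus quencher. FDSS fluorescence: 10 s baseline, compound pin-transfer, 110 s agonist read, then EC80 54-4 (4uM final) and 110 s antagonist read.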
PINK1 modulator – PINK1 expression modulation; PINK1 immunofluorescence, high-content cytometry, 24 h; Potency, µM (highest dose often 76.6 µM), inactives show at the top dose activation (PINK1 increase), most hits filed as activators; 0.2% of 410,000 active; active = well fitted activation curve with a large enough effect; inconclusive = small, poorly fitted or top-dose-only effect; inactive = flat fitted curve, though single readings scatter; cell line not stated here;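 note: potency is the fitted concentration of half-maximal effect; % of control where 0% means no effect; nearly all actives have a fitted effect of over 65% in size; a mitochondrial uncoupler was the plate control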
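PINK1 protein level read as immunofluorescence by microplate cytometer in a fixed, stained stable cell line after 24 h exposure to five compound concentrations, with CCCP as control.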
The depositor's hits bear a star; ? = inconclusive; nt = not tested or not shown; & = joins results of further samples; [ ] = another dose, or the depositor's remark.

SMILES | D2 ag | Six1-Eya2 inh | TRPML1 blocker | CtBP-E1A blk | TRPML1 ag | PINK1 modulator
NC(=O)CC(NC(=O)Cc1ccc(Br)cc1)c1ccc(NC2CCCC2)c([N+](=O)[O-])c1 (centres undefined) | -2.7 | 0 | -13 | -2 | 0.2 | 9.3%
O=C(NCCN1CCOCC1)c1ccncc1 | -0.7 | 4 | 0 | -1 | 0.3 | -2.3%
CCOC(=O)N1CCC(=C(C#N)C(=O)Nc2cc(OC)ccc2OC)CC1 | 1.0 | -2 | -4 | 2 | 0.4 | -0.8%[38.3 µM]
O=C(O)CCc1ccc(-c2cccs2)n1CCC(=O)O | -3.6 | -5 | -6 | 0 | -0.6 | 0.5%
CC(C(=O)O)n1ncc2ccccc2c1=O (centres undefined) | -2.3 | 1 | nt | 7 | nt | 3.3%
O=C1c2ccccc2-c2cccc(C(=O)N3CCCCC3)c21 | -3.5 | 5 | -4 | -9 | -0.9 | -0.9%
COc1ccc(S(=O)(=O)NC(C)C)cc1-n1cnnn1 | -4.3 | 3 | -19&-4 | 2 | 0.0&-0.8 | 0.5%&-0.5%
O=C(CC1C(=O)NCCN1Cc1c(F)cccc1Cl)NCCCN1CCCC1=O (centres undefined) | -1.6 | 0 | 14 | 7 | -0.1 | 0.3%
N#Cc1cccc(CN2C=NS(=O)(=O)c3ccccc32)c1 | -3.0 | 0 | 41 | 8 | -0.4 | -1.5%
Cc1ccc(NS(=O)(=O)c2ccc3[nH]c4c(c3c2)CCCCCC4)cc1C | nt | nt | 12 | nt | 1.8 | 6.6%
Cc1cccc(C)c1NC(=O)COC(=O)c1ccc([N+](=O)[O-])o1 | -2.1 | -3 | -4 | -5 | -1.2 | -1.4%
COC(=O)c1sccc1-c1ccc(C(=O)Nc2ccccc2)o1 | -4.2 | -8 | -12 | -1 | 0.5 | -1.4%

3 of the compounds above, as a markdown table:
| compound | D2 ag | Six1-Eya2 inh | TRPML1 blocker | CtBP-E1A blk | TRPML1 ag | PINK1 modulator |
| --- | --- | --- | --- | --- | --- | --- |
| O=C(O)CCc1ccc(-c2cccs2)n1CCC(=O)O | -3.6 | -5 | -6 | 0 | -0.6 | 0.5% |
| CC(C(=O)O)n1ncc2ccccc2c1=O (centres undefined) | -2.3 | 1 | nt | 7 | nt | 3.3% |
| O=C1c2ccccc2-c2cccc(C(=O)N3CCCCC3)c21 | -3.5 | 5 | -4 | -9 | -0.9 | -0.9% |

The listing picks up; the 5 compounds before the break are reprinted first.
SMILES | D2 ag | Six1-Eya2 inh | TRPML1 blocker | CtBP-E1A blk | TRPML1 ag | PINK1 modulator
O=C(CC1C(=O)NCCN1Cc1c(F)cccc1Cl)NCCCN1CCCC1=O (centres undefined) | -1.6 | 0 | 14 | 7 | -0.1 | 0.3%
N#Cc1cccc(CN2C=NS(=O)(=O)c3ccccc32)c1 | -3.0 | 0 | 41 | 8 | -0.4 | -1.5%
Cc1ccc(NS(=O)(=O)c2ccc3[nH]c4c(c3c2)CCCCCC4)cc1C | nt | nt | 12 | nt | 1.8 | 6.6%
Cc1cccc(C)c1NC(=O)COC(=O)c1ccc([N+](=O)[O-])o1 | -2.1 | -3 | -4 | -5 | -1.2 | -1.4%
COC(=O)c1sccc1-c1ccc(C(=O)Nc2ccccc2)o1 | -4.2 | -8 | -12 | -1 | 0.5 | -1.4%
Cc1ccc([C@H]2Nc3ccc(S(=O)(=O)Nc4cccc(Cl)c4C)cc3[C@H]3C=CC[C@H]32)cc1 | nt | nt | -16 | nt | 1.5 | 2.1%
Cc1cccc(OCc2nnc(SCC(=O)c3c(N)n(C4CC4)c(=O)[nH]c3=O)o2)c1 | -1.4 | 6 | -9 | 7 | -0.7 | 0.4%
CC1C(=O)N2CCCc3cc(S(=O)(=O)N4CCN(c5ccccc5F)CC4)cc1c32 (centres undefined) | 2.7 | 1 | -4 | -4 | -1.0 | 1.5%
CCOc1ccc(-c2nnn(CC(=O)Nc3cc(OC)cc(OC)c3)n2)cc1OCC | 0.7 | 3 | -17 | 5 | 3.2 | 19%[38.3 µM]
CCOc1ccc(S(=O)(=O)N2CN(c3cccc(C(C)=O)c3)c3nc4ccccc4nc32)cc1 | 1.2 | 4 | -21 | -10 | 64* | -1.5%
CC1=CC2=NC(=O)CC(C)(C(=O)N(CC(=O)NC(C)(C)C)C3CCCC3)N2C=C1 (centres undefined) | 0.1 | 7 | 18 | 5 | 0.2 | -3.6%[38.3 µM]
COc1cc(CNc2ncnc3c2ncn3[C@H]2CN(Cc3cc(OC)c(OC)c(OC)c3)C[C@@H](CO)O2)cc(OC)c1OC | -4.7 | -12 | nt | -11 | -0.1 | 2.7%
Cc1nc2ccc(F)cc2cc1C(=O)NCC1CCCO1 (centres undefined) | 8.0 | 0 | 11 | -5 | 1.5 | 1.3%
Cc1ccc(S(=O)(=O)N2CCOCC2)cc1C(=O)N(Cc1nnc(-c2ccccc2Cl)o1)C1CC1 | 0.8 | -3 | 5 | 2 | 0.6 | 0.7%
COc1ccc(OC)c2cc3ccccc3cc12 | 12 | -20 | -4 | -11 | 8.0 | -0.3%
COc1ccc(OCCSc2nnc(-c3ccoc3C)n2C)cc1 | -1.7 | 0 | 14 | -13 | 1.6 | -2.3%
O=c1[nH]nc(Cc2ncc(C(F)(F)F)cc2Cl)c2ccccc12 | -1.6 | -1 | 16 | 5 | -0.1 | 0.6%
Cc1oncc1C(=O)Nc1cccc2ccccc12 | 0.3 | 18 | 39 | 2 | -0.5 | -0.3%
CC1CC(C)CN(C(=O)c2ccc(CSc3nc4ccncc4[nH]3)cc2)C1 (centres undefined) | 1.4 | 1 | 18 | 1 | -1.3 | -1.2%
O=C(CSc1nnc(-c2ccc3c(c2)OCO3)n1-c1ccccc1)c1ccccc1 | 1.4 | 0 | 8 | 1 | -0.7 | 4.2%
O=C(O)CCC(=O)N(Cc1cccnc1)Cc1cccc(F)c1 | -2.6 | 5 | -12 | 4 | 3.3 | 6.9%[38.3 µM]
COc1ccc(CC(=O)N2CCc3cc(OC)c(OC)cc3C2COc2ccc(OC)cc2)cc1 (centres undefined) | nt | nt | 9 | nt | 2.4 | -3.7%
CC(OC(=O)CC(NC(=O)c1ccccc1Cl)c1ccccc1)C(=O)Nc1cccc(Cl)c1Cl (centres undefined) | 0.2 | 6 | 34 | -3 | 4.3 | 0.2%
CC1OC(OC2C(CO)OC(OCC3OC(OC(=O)[C@@]45CCC(C)(C)C[C@@H]4C4=CC[C@@H]6[C@@]7(C)CCC(OC8OCC(O)C(O)C8OC8OC(C)C(O)C(O)C8O)[C@@](C)(CO)C7CC[C@@]6(C)[C@]4(C)CC5)C(O)C(O)C3O)C(O)C2O)C(O)C(O)C1O (some centres undefined) | -5.6 | 25 | 3 | 0 | -0.3 | 6.5%
CCn1nc(C(=O)Nc2ccccc2C)c(Cl)c1Cl | -3.3 | 0 | -9 | 3 | 0.0 | 0.1%
O=C(c1cnn(-c2ccc(F)cc2)c1-n1cccc1)N1CCN(c2ccc(Cl)cc2)CC1 | nt | nt | -11 | nt | 1.5 | -1.0%
COC(=O)N=Nc1c(O)n(Cc2ccccc2)c2ccccc12 | -1.2 | -10 | -9 | 2 | 0.7 | 8.2%
COCCNC(=S)N(CCO)Cc1cc2cc3c(cc2[nH]c1=O)OCO3 | -3.5 | -10 | 19 | -2 | -0.4 | -1.0%
O=c1oc2c(CN3CCCCC3)c(O)ccc2c2c1CCCCC2 | -1.2 | 5 | 13 | 2 | -0.7 | -0.4%[38.3 µM]
O=C(NC1CCCC1)C(c1ccccc1)N(C(=O)c1csnn1)c1ccccc1F (centres undefined) | -2.8 | 8 | -5 | 0 | 0.0 | 0.2%
C[C@@H]1CN([C@H](C)CO)C(=O)CCCn2nncc2CO[C@H]1CN(C)S(C)(=O)=O | -7.6 | 7 | 23 | 5 | -0.8 | -0.6%
O=C(O)c1cc(-c2ccccc2)n(-c2ccc(F)cc2)n1 | -6.2 | -4 | 30 | 4 | -0.1 | 0.5%
O=C(Nc1ccc(S(=O)(=O)N2CCCCC2)cc1)C1CC(=O)N(c2ccc(F)cc2)C1 (centres undefined) | 5.9 | 0 | 13 | -11 | 1.2 | 4.6%
Cc1ccccc1OCCCCCNCCO | 0.0 | 2 | -7 | -2 | -0.4 | -1.0%[38.3 µM]
CCCS(=O)(=O)NC(=O)C1(C)CCN(C(=O)Cc2ccc3ccccc3c2)C1 (centres undefined) | -2.0 | 9 | nt | -15 | -0.3 | -0.5%
Cc1cc2nc(SCCOC(=O)Nc3ccccc3)nc(C)c2cc1C | 2.2 | 1 | 17 | 1 | 2.3 | -2.2%
Cn1c(NNC(=O)/C=C/c2ccc3c(c2)OCO3)cc(=O)n(C)c1=O | -4.5 | -6 | nt | -26 | nt | -0.1%
C=CCOc1ccc(C(=O)Nc2ccc3c(c2)n(C)c(=O)n3C)cc1 | -1.5 | -7 | 7 | -1 | 0.3 | 6.7%
N/C(=N\OCC(=O)Nc1ccc(F)c(Cl)c1)c1ccccc1 | 6.0 | 19 | -1 | -9 | 0.2 | -0.6%
O=C(CC1SC(=O)NC1=O)Oc1ccc(/C=N/NC(=O)c2ccccc2O)cc1 (centres undefined) | -2.7 | ? | 5 | nt | 1.7 | -0.1%
Nc1cc(C(=O)O)ccc1N1CCCCCC1 | 0.0 | -2 | 7 | 4 | 0.2 | -4.1%[38.3 µM]
O=C(COc1ccccc1C(=O)NCc1ccncc1)Nc1ccc(Br)cc1 | -4.1 | -12 | -5 | -1 | 2.1 | 1.2%
CC(=O)Nc1ccc(OC(=O)c2cccs2)cc1 | -2.7 | -1 | 37 | 1 | 0.4 | -0.3%[38.3 µM]
CC1CC(C)(C)CC2(C1)NC(=S)N(c1ccccc1)N2 (centres undefined) | 3.2 | 3 | -14 | 5 | -0.3 | 9.7%
COc1ccc(C(=O)c2cnc3cc4c(cc3c2C)OCO4)cc1 | 0.2 | -1 | 6 | -4 | 0.9 | 1.5%
COc1ccc(NC(=O)CSc2nnnn2C2CCCC2)cc1 | 3.0 | -3 | -6 | nt | 0.8 | -1.1%
CCn1c(SCc2ccccc2F)nnc1-c1ccncc1 | -3.0 | 1 | 4 | 4 | -0.2 | 0.3%
CN(CC(=O)Nc1ccc(F)c(F)c1F)C(=O)C1COc2ccccc2O1 (centres undefined) | -1.5 | 0 | 2 | 3 | 0.1 | -1.1%
O=c1[nH][nH]c(C(F)(F)F)c1C=NCc1cccc(Cl)c1 | -3.9 | 5 | 8 | 6 | -0.2 | 1.5%
Cc1cccc(C(=O)N2CCc3cc(CNC(=O)COc4ccc(Cl)cc4)ccc32)c1 | nt | nt | 5 | nt | -0.4 | 1.0%
Cc1ccc(S(=O)(=O)c2cn(CC(=O)Nc3ccccc3)c3cc4c(cc3c2=O)OCO4)cc1 | nt | nt | -18 | nt | 1.1 | 1.2%
CCOCCn1c(SCC(=O)OCc2ccccc2)nc2c1c(=O)[nH]c(=O)n2C | 1.3 | 8 | 2 | -2 | -0.3 | 0.0%
